Compound activity: PubChem BioAssay, National Center for Advancing Translational Sciences (NCATS)
PINK1 modulator: changes PINK1 expression | hit rate 0.2% among 410,000 | PINK1 immunofluorescence, high-content cytometry, 24 h | Potency, µM (doses to about 76.6 µM), for inactives: top-dose activation (PINK1 increase), most hits filed as activators; active = well fitted activation curve with a large enough effect; inconclusive = small, poorly fitted or top-dose-only effect; inactive = flat fitted curve, though single readings scatter; cell line not stated here;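 further: potency means the concentration at half of the fitted maximal effect; % of control where 0% means no effect; nearly all actives have a fitted effect of over 65% in size; a mitochondrial uncoupler was the plate control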
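Stable cell line, 250 cells/well, 12 h attachment; compounds pinned at 5 concentrations, 24 h; CCCP control. Fixed with nuclear dye, primary antibodies 12 h at 10 degrees C, secondary plus cell stain; laser-scanning cytometer read.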
D2 agonist: human D2 receptor agonism in beta-arrestin assay; P14416; hit rate 0.084% among 360,000; AID 624465; activation, % (test concentration not listed); DiscoveRx PathHunter D2 beta-arrestin, luminescence, 90 min; 100% = 57 uM dopamine signal; in the data active = activation above about 40%; inconclusive = about 15% to 40%; inactive = below about 15%; further: compound concentration not given in the record; the text of the record calls up to 30% inactive
Target sequence (P14416 whole entry, looked up): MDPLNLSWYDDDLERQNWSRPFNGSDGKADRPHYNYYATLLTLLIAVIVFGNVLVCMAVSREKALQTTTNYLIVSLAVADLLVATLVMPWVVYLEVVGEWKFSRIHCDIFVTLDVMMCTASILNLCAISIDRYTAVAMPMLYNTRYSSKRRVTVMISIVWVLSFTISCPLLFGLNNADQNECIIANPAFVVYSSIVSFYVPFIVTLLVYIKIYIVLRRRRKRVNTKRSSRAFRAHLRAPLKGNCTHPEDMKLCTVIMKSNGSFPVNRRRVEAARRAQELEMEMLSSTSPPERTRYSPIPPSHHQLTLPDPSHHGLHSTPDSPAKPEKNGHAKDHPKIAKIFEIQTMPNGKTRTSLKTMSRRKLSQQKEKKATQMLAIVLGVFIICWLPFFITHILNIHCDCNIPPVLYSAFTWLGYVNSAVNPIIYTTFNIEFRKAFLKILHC
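Agonist mode: compounds alone added to overnight-plated D2 PathHunter cells for 90 min at 37 C, with 57 uM final dopamine (EC100) defining full response. Beta-arrestin recruitment detected by chemiluminescent reagent, read after 1 h at ambient temperature.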
Six1-Eya2 blk: inhibitors of human Six1/Eya2 interaction | Q15475+O00167 | AlphaScreen GST-Six1/His-Eya2 binding, biochemical; hits give low values; control for the full effect not named in the record | activity change, % (test concentration not listed) | hit rate 0.56% among 360,000; in the data active = activity change below about -65%; inconclusive = about -30% to -65%; inactive = above about -30%; further: on the % scale 0 is the no-effect control and ±100 the full control effect; compound concentration not given in the record
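AlphaScreen luminescence read after one hour at 37 °C in darkness. Pin-transferred compounds met GST-Six1 and His-Eya2 protein (5X stock 250 nM/500 nM) plus glutathione donor and Ni-chelate acceptor beads (5X, 50 ug/mL).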
CtBP-E1A blk: blocks the CtBP interaction with E1A. hit rate 0.49% among 340,000. AlphaScreen GST-E1A/His-CtBP binding, 1536-well; hits give low values; control for the full effect not named in the record. activity change, % (concentration not given with the values); in the data active means activity change below about -65%; inconclusive means about -30% to -65%; inactive means above about -30%; further: on the % scale 0 is the no-effect control and ±100 the full control effect
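In 5 uL wells, 23 nL compound meets equimolar GST-E1A and His-CtBP (5X stock 125 nM each) for 2 h, 37 °C. Beads (5X, 50 ug/mL) then 1 h, 37 °C, dark.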
TRPML1 agonist: activates the human TRPML1 channel. Q9GZU1. TRPML1-expressing cells, Ca2+ dye fluorescence, FDSS; host cell line not named in the record; reference of the full effect not given here. activation, % (no concentration beside the values). hit rate 0.12% among 410,000. AID 624414; in the data active = activation above about 50%; inconclusive = about 30% to 50%; inactive = below about 30%; further: 0% is about no effect; the text of the record puts the active cut at 80%
Target sequence (Q9GZU1 whole entry, looked up): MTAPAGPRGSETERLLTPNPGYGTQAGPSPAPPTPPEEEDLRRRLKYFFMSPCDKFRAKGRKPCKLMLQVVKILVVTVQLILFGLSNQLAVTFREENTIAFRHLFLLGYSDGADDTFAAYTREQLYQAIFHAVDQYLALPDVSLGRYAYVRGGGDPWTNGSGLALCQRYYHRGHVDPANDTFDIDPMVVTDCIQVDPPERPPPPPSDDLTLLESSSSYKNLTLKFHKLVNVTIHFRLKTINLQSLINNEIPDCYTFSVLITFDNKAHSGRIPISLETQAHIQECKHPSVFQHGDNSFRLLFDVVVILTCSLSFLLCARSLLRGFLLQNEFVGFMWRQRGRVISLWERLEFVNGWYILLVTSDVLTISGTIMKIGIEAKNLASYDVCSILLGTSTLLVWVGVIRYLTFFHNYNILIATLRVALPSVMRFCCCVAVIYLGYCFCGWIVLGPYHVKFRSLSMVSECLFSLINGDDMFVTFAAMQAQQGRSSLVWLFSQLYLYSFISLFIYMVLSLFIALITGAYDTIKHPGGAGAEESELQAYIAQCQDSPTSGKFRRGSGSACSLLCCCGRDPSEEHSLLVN
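Cells: TRPML1-DL, 1X Tet inducer, ~16 h at 37 degrees C/5% CO2. Dye: ABD Ca8 no-wash + quencher, 45-90 min RT. Read: 10 s baseline, compound add, 110 s agonist phase; 54-4 EC80 (4uM final), 110 s antagonist phase.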
D2 PAM: positive allosteric modulators of human D2 dopamine receptor | AID 624464 | hit rate 0.23% among 360,000 | P14416 | DiscoveRx D2 beta-arrestin cells, luminescence, 90 min; 100% = 57 uM dopamine signal | potentiation, % (concentration not given with the values); active = potentiation of 50% or more; inconclusive = 30% to 50%; inactive = 30% or less;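 further: compound concentration not given in the record; tested on top of an EC20 dose of dopamine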
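PathHunter D2 cells, attached overnight at 37 deg C, received compound in DMSO plus dopamine at EC20 (50 nM final) for 90 min at 37 deg C. Beta-arrestin recruitment was read as luminescence after 1 h with detection reagent at ambient temperature.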
Active calls of the source: *; ? = inconclusive; . = not tested or not shown; & = joins results of further samples; [ ] = remark or other dose.

Start of the data: the first 16 compounds (preview)
Value order: PINK1 modulator, D2 agonist, Six1-Eya2 blk, CtBP-E1A blk, TRPML1 agonist, D2 PAM
Cc1ccc(Cl)c(OCC(=O)Nc2ccccc2C(=O)NC2CC2)c1
  4.7%, -6.0, -4, 27, 0.8, -6
CCCSC(=S)NC1CCS(=O)(=O)C1 (configuration not stated)
  ., -2.1, 19, 37, 0.2, -2
CCOc1ccc(OCCSc2nc3ccccc3c(=O)[nH]2)cc1
  30%[38.3 µM], -2.4, -6, -18, -0.2, 2
CCc1cccc(N(C(=O)c2csnn2)C(C(=O)NC(C)(C)C)c2ccncc2)c1 (configuration not stated)
  1.8%, -2.2, 5, 4, -1.2, -9
CCOc1cc(/C=N/O)ccc1OCc1ccc(C)cc1
  2.8%, -1.6, 3, 6, 0.4, -7
CN1CCN(c2cc3c(cc2F)c(=O)c(C(=O)O)cn3CCF)CC1
  -0.5%, 2.4, 22, ., 0.9, 8
COc1ccc(C(=S)Nc2ccc(N(C)C)cc2)cc1
  0.8%, -3.7, -9, -12, -0.8, -17
C=CCn1c(SCC(=O)NCc2ccc3c(c2)OCO3)nnc1C1CCCCC1
  -0.3%, -1.0, 8, -1, 0.2, -2
Cc1cc(C)c(NC(=O)c2cn3c4c(c(N5CCN(C)CC5)c(F)cc4c2=O)OCC3C)c(C)c1 (configuration not stated)
  1.2%, -2.0, 2, -6, 0.8, 10
COC(=O)Cc1ccc(NC(=S)N2CCN(c3ccc(OC)cc3)CC2)cc1
  3.4%, -2.1, -8, -4, 0.8, -6
O=C(Nc1ccccc1C(=O)N1CCCCCC1)c1ccccc1Cl
  5.3%, -3.5, 6, 4, -0.8, -6
CC1(Cc2ccccc2Cl)C(=O)Nc2c(Cl)ccc(Cl)c21 (configuration not stated)
  3.5%, 5.7, -11, 1, -0.8, -7
CC(=O)c1ccc(NC(=O)CSc2ccc(-c3ccc4c(c3)OCO4)nn2)cc1
  ?, 0.1, -8, 15, 0.4, -2
CN(C)c1oc(-c2ccco2)nc1C#N
  -0.3%, -1.7, -2, -5, 1.3, -3
O=C(Nc1ccc(F)cc1)Nc1ccccc1F
  0.8%, 0.0, 0, 13, 0.8, -4
CC12COC3(C(=O)N4CCN(c5ccccn5)CC4)CC1CCC32C (configuration not stated)
  1.7%, 0.1, 3, 3, 0.2, -5

Results, from the first entry:
Value order: PINK1 modulator, D2 agonist, Six1-Eya2 blk, CtBP-E1A blk, TRPML1 agonist, D2 PAM
Cc1ccc(Cl)c(OCC(=O)Nc2ccccc2C(=O)NC2CC2)c1
  4.7%, -6.0, -4, 27, 0.8, -6
CCCSC(=S)NC1CCS(=O)(=O)C1 (configuration not stated)
  ., -2.1, 19, 37, 0.2, -2
CCOc1ccc(OCCSc2nc3ccccc3c(=O)[nH]2)cc1
  30%[38.3 µM], -2.4, -6, -18, -0.2, 2
CCc1cccc(N(C(=O)c2csnn2)C(C(=O)NC(C)(C)C)c2ccncc2)c1 (configuration not stated)
  1.8%, -2.2, 5, 4, -1.2, -9
CCOc1cc(/C=N/O)ccc1OCc1ccc(C)cc1
  2.8%, -1.6, 3, 6, 0.4, -7
CN1CCN(c2cc3c(cc2F)c(=O)c(C(=O)O)cn3CCF)CC1
  -0.5%, 2.4, 22, ., 0.9, 8
COc1ccc(C(=S)Nc2ccc(N(C)C)cc2)cc1
  0.8%, -3.7, -9, -12, -0.8, -17
C=CCn1c(SCC(=O)NCc2ccc3c(c2)OCO3)nnc1C1CCCCC1
  -0.3%, -1.0, 8, -1, 0.2, -2
Cc1cc(C)c(NC(=O)c2cn3c4c(c(N5CCN(C)CC5)c(F)cc4c2=O)OCC3C)c(C)c1 (configuration not stated)
  1.2%, -2.0, 2, -6, 0.8, 10
COC(=O)Cc1ccc(NC(=S)N2CCN(c3ccc(OC)cc3)CC2)cc1
  3.4%, -2.1, -8, -4, 0.8, -6
O=C(Nc1ccccc1C(=O)N1CCCCCC1)c1ccccc1Cl
  5.3%, -3.5, 6, 4, -0.8, -6
CC1(Cc2ccccc2Cl)C(=O)Nc2c(Cl)ccc(Cl)c21 (configuration not stated)
  3.5%, 5.7, -11, 1, -0.8, -7
CC(=O)c1ccc(NC(=O)CSc2ccc(-c3ccc4c(c3)OCO4)nn2)cc1
  ?, 0.1, -8, 15, 0.4, -2
CN(C)c1oc(-c2ccco2)nc1C#N
  -0.3%, -1.7, -2, -5, 1.3, -3
O=C(Nc1ccc(F)cc1)Nc1ccccc1F
  0.8%, 0.0, 0, 13, 0.8, -4
CC12COC3(C(=O)N4CCN(c5ccccn5)CC4)CC1CCC32C (configuration not stated)
  1.7%, 0.1, 3, 3, 0.2, -5
COc1ccc(/C(C)=N/NC(=O)CNC(=O)/C=C\c2ccco2)cc1
  9.8%, -1.3, -7, 1, 5.2, -2
CCOC(=O)c1cn2nc(-c3ccc(OCC)cc3)cc2nc1C1CCN(C(=O)OC(C)(C)C)CC1
  3.4%, -1.7, 3, -1, 0.1, -1
O=C(O)C1Oc2ccccc2C1c1ccccc1 (configuration not stated)
  -0.9%, -1.2, 5, -1, 0.9, -2
C[C@]12C[C@H](O)[C@@H]3c4ccc(O)cc4CCC3[C@@H]1CCC2=O (some centres not stated)
  0.6%, 2.5, 2, 4, 0.1, -4
COc1ccc(-n2c(C)c3c(C)nnc(C)c3c2C)cc1OC
  0.9%, -1.3, -3, -4, -0.5, -1
C=CCOC(=O)C1=C(C)NC(=O)NC1c1cc2c(cc1Br)OCO2 (configuration not stated)
  3.3%, -4.9, -5, 0, -0.3, 1
CCn1c(=O)c(C(=O)CN(C)Cc2cccc(OC)c2OC)c(N)n(Cc2ccccc2)c1=O
  -0.7%, -2.7, -4, 2, -0.9, 6
Cc1ccc(S(=O)(=O)CC(=O)c2ccc([N+](=O)[O-])cc2)cc1
  -0.3%, 1.4, -6, ., -0.6, 0
Cc1ccc(NC(=O)Cc2c[nH]c3ccccc23)cc1S(=O)(=O)N1CCCCCC1
  -0.9%, 0.0, -11, 10, -0.5, 5
Cc1c(CNCCc2ccc(Cl)cc2)c(C(=O)O)c(C)n1Cc1ccccc1
  0.5%, -4.6, 0, ., 1.5, -5
CC(=O)Nc1ccc(NC(=S)Nc2ccc(F)cc2)cc1
  0.5%, -4.6, 16, 1, -0.4, -5
O=C(CCc1ccccc1)Nc1ccncc1
  0.4%[38.3 µM], 2.1, -1, 0, -0.6, -20
C/C(=C/C(=O)N1CCc2ccccc21)C(=O)O
  -0.1%, -0.5, -17, -16, -0.3, -1
CCN(CC)S(=O)(=O)c1cccc(-c2nnc(SCc3nnc(-c4cccs4)o3)n2N)c1
  1.3%, -1.0, 2, 0, 1.9, 5
CCOc1ccccc1NC(=O)Cn1ncc2ccc([N+](=O)[O-])cc21
  0.0%, -3.1, -5, 0, -0.5, -6
C=C(C)C(O)COc1c2occc2c(OC)c2ccc(=O)oc12 (configuration not stated)
  -0.4%, 4.6, 3, 7, 0.3, 0
OC(c1ccco1)c1nc(-c2cccs2)cs1 (configuration not stated)
  0.4%, -1.3, 0, -3, 0.3, -5
Cc1ccc(NC(=O)NNC(=O)c2cc3ccccc3cc2O)cc1C
  -1.6%, -0.2, -4, 4, 1.5, -12
CC(C)(CC(=O)OCC(=O)Nc1ccccc1F)CC1=NS(=O)(=O)c2ccccc2N1
  -0.4%&-0.5%, -6.9, 1, -12, -0.4&0.2, -16
COc1ccc(C(=O)NCCn2cc(SCC(=O)N3CCOCC3)c3ccccc32)cc1
  -1.5%, -3.6, 0, 2, -0.9, -6
COc1ccc(-c2noc(CN(C(=O)c3ccc4c(c3)OCO4)C(C)C)n2)cc1OC
  0.3%, -0.9, -3, -6, 1.4, -7
CN(C)S(=O)(=O)c1ccc(-c2cn3ccccc3n2)cc1
  0.5%[38.3 µM], 0.6, 16, 24, 0.2, 17
COC(=O)CN1C(=O)C(O)(CC(=O)c2ccc(Br)cc2)c2ccccc21 (configuration not stated)
  6.9%, -5.2, 5, 2, -0.4, -13
O=C(NCc1cccc2[nH]ccc12)C1CCC(=O)N(CCc2ccccc2)C1 (configuration not stated)
  -1.7%, -0.9, -1, 5, -0.4, -1
CCc1nnc(NC(=O)CCC(=O)O)s1
  0.8%, -4.0, 1, 3, -0.2, 0
Cc1[nH]n(-c2ccccc2)c(=O)c1N=Nc1c(Cl)cccc1Cl
  0.0%, -1.0, -23, ., ., -15
Cn1c(=N)n(CC(=O)c2ccc(F)cc2)c2ccccc21
  -0.4%, -3.2, 19, 9, -1.7, -16
CCn1c(-c2cc(Br)cc(OC)c2O)nc2cc(S(=O)(=O)N(C)C)ccc21
  -0.3%[38.3 µM], -2.8, ?, ?, 0.4, -9
COc1cccc(-c2nc(N3CCC(C)CC3)c3ccccc3n2)c1O
  4.1%, -4.6, -3, 5, -0.4, -17
Cc1cccc(C(=O)Nc2cccc(-c3ccc4nncn4n3)c2)c1
  4.1%, -3.9, -19, -18, -0.2, 7
CC(C)CC(=O)OCC(=O)Nc1ccccc1Sc1ccccc1
  4.8%, -3.0, 25, 17, 0.8, -2
CCCc1ccc(S(=O)(=O)N2CCN(C(=O)c3cc(C)on3)CC2)cc1
  -0.6%, -0.4, 4, -1, -0.9, -8
CCC(C(=O)NC(CC(=O)O)c1ccc(Cl)cc1)c1ccccc1 (configuration not stated)
  0.1%, -5.2, 3, 3, ., 6
CCc1cccc(C)c1NC(=O)CNCc1ccccc1
  0.0%, -2.9, -1, 12, -1.5, -13
O=C(NCCCN1CCN(c2ccccc2)CC1)Nc1ccccc1C(F)(F)F
  -0.8%, ?, 0, -1, -0.4, -8
CCCCCc1ccc(-c2ccc(/C=C/C(=O)O)cc2)nc1
  -0.6%, -2.4, -15, -8, -0.4, -16
Cc1ccc(-c2nc(CS(=O)CC(=O)NCCCN3CC(C)CC(C)C3)c(C)o2)cc1 (configuration not stated)
  -0.8%, -3.4, 0, -3, -0.3, -9
O=C(NCCc1ccccn1)c1cccnc1Oc1ccc(Cl)cc1
  1.3%, -4.4, 1, ., -0.6, -20
CCOc1nc(N2CCCCC2)nc(-n2cc(-c3ccccc3)nn2)n1
  0.8%, -2.3, -4, -2, -0.8, -15
COc1c(F)c(F)c(-c2csc(N)n2)c(F)c1F
  -1.2%, -2.1, -3, 1, 0.7, -5
O=C(OC1CC2CC1[C@H]1CCCCN1C2=O)N1CCN(S(=O)(=O)c2ccccc2)CC1 (some centres not stated)
  -1.0%, ., 6, 3, -0.5, .
COc1cc(NC(=O)COC(=O)C2CC(O)CN2S(=O)(=O)c2ccc(Cl)cc2)c(C)cc1[N+](=O)[O-] (configuration not stated)
  0.5%, 6.9, -4, 0, 2.1, -2
